# B2AR ag – beta2AR agonists driving receptor internalization, primary screen, cell-based, FAP fluorogen, flow cytometry. Beta-2 adrenergic receptor (Homo sapiens), P07550. Am2.2-beta2AR cells; reference of the scale not given here. response, % (concentration not given with the values). 340,000 tested, 0.43% active;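 active means response above a set limit, near 3 SD of response in nonfluorescent compounds, cut at about 42% in these data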;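 further: stock transfer was 100 nL into about 11 µL; a reference agonist was the positive control; negative values mostly stem from fluorescent compounds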
# Target sequence (P07550 whole entry, looked up): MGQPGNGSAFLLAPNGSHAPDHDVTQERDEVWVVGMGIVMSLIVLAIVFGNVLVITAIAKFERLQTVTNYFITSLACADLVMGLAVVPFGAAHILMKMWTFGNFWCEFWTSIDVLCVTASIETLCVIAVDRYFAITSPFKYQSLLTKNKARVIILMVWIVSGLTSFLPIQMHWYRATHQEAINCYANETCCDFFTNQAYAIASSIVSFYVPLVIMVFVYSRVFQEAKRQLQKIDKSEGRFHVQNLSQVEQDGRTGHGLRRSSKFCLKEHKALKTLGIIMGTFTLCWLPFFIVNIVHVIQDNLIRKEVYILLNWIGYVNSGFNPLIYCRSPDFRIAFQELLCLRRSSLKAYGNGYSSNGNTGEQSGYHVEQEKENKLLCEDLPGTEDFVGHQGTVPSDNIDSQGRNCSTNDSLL
# Beta cell apopt – inhibitors of cytokine-induced beta cell apoptosis, primary screen, luminescence | INS-1E cytokine-induced death, ATP luminescence, 48 h; percent of positive-control rescue, neutral wells zero | 300,000 tested, 0.8% active | protection from apoptosis, % (no concentration beside the values);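 active means all replicates at 75% or more, or half of them and the mean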;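 further: 0% = cytokine-treated negative control wells and 100% = positive control rescue; higher means more ATP so stronger rescue from cytokine killing; wells of about 40 µL received 100 nL stock; the first replicate is given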
# T cruzi repl – inhibitors of intracellular T. cruzi growth, primary screen, luminescence, NIH3T3 host cells; 300,000 tested, 1.4% active; inhibition, % (test concentration not listed); T. cruzi beta-gal in NIH3T3, 90 h;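 active means mean inhibition across valid replicates above about 55%, limit read from the data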;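 further: signal also drops with host cell toxicity which is not excluded here; 0% = plate median of DMSO wells and 100% = zero luminescence signal; higher percent means less beta-gal luminescence so fewer parasites; stock transfer was 50 nL into about 50 µL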
# Ecoli rRNA inh – reduced GFP signal of wild-type E. coli, primary screen, bacterial rRNA inhibitor project, GFP/RFP fluorescence, OD600, single point; E. coli WT GFP vs humanized-ribosome RFP mutants, 24 h; stronger effect = lower value; DMSO median 0, no signal -100; GFP signal change (wild-type ribosome), % (concentration not given with the values); 350,000 tested, 1.6% active; AID 720706, 2013;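 active means significant combined selectivity score with lowered wild-type GFP, culture density cut under 30%, mutant RFP and density less affected; inactive means any of these conditions unmet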; further: one replicate is shown; some compounds called inactive have numbers as strong as hits
# LANA-H2B inh – blockers of LANA interaction with H2A/H2B – biochemical, FP readout, HTS, primary screen. Protein LANA1 (Human herpesvirus 8 type P (isolate GK18)), Q9QR71. 320,000 tested, 0.6% active. inhibition, % (concentration not given with the values). cell-free LANA-H2A/H2B peptide, fluorescence polarization; in the data active means inhibition mostly above about 10%, no sharp cut-off; inactive means mostly below about 6.7%;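 further: stock transfer was 7.5 nL into about 10 µL; 0% = median of vehicle wells and 100% = median of positive control wells; one replicate is shown; the record names a cut of 25% in any replicate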
# Calb FLC – C. albicans growth inhibition with fluconazole, primary screen, CaCi-2 strain, Alamar Blue fluorescence; 300,000 tested, 0.57% active; C. albicans CaCi-2 (fluconazole-resistant clinical isolate) + fluconazole, 48 h; growth inhibition, % (concentration not given with the values);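 active means most replicates above 75%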;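 further: all wells also contain fluconazole at 8 µg/ml as a sub-toxic cotreatment; 0% = median of DMSO wells and 100% = median of geldanamycin control wells; wells of about 8 µL received 7.5 nL stock; the first replicate is given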
# Bfl-1 A1 inh – caspase 3/7 activation in MEF A1-2A-BIM cells, primary screen, A1 inhibitor project, cell-based, luminescence, HTS; Caspase-Glo 3/7 luminescence, 3 h; percent of clofoctol response, vehicle zero; caspase activation, % (no concentration beside the values); 330,000 tested, 0.066% active;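 active means over half of replicate activation scores above 10%, or exactly half above 10 with the replicate mean above 10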;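 further: wells of about 30 µL received 50 nL stock; many hits fall short of the cut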
# Ecoli rRNA inh OD600 – second read-out of Ecoli rRNA inh, no call of its own (marks repeat the call); OD600 change, %; measured here: OD600 growth;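 optical density of the mix in the first replicate; 0 = DMSO median and -100 = no signal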
# Ecoli rRNA inh RFP – second read-out of Ecoli rRNA inh, no call of its own (marks repeat the call); RFP signal change, %; measured here: RFP humanized mutant strains;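 first replicate; 0 = DMSO median and -100 = no signal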
# Starred values were filed as active, the others as inactive; x = no result given; & = joins results of further samples.
# Start of the data: the first 3 entries, to show the layout:
SMILES,B2AR ag,Beta cell apopt,T cruzi repl,Ecoli rRNA inh,Ecoli rRNA inh OD600,Ecoli rRNA inh RFP,LANA-H2B inh,Calb FLC,Bfl-1 A1 inh
NCC1(CC(=O)O)CCCCC1,x,-6,x,x,x,x,-0.5,x,-0.4
CC(C)CNC(=O)/C=C/C=C/CCCCCC/C=C/c1ccc2c(c1)OCO2,3,x,x,x,x,x,x,x,x
CCOc1cc(C=O)ccc1O,13,x,x,x,x,x,x,x,x

# The list itself, repeating the preview:
SMILES,B2AR ag,Beta cell apopt,T cruzi repl,Ecoli rRNA inh,Ecoli rRNA inh OD600,Ecoli rRNA inh RFP,LANA-H2B inh,Calb FLC,Bfl-1 A1 inh
NCC1(CC(=O)O)CCCCC1,x,-6,x,x,x,x,-0.5,x,-0.4
CC(C)CNC(=O)/C=C/C=C/CCCCCC/C=C/c1ccc2c(c1)OCO2,3,x,x,x,x,x,x,x,x
CCOc1cc(C=O)ccc1O,13,x,x,x,x,x,x,x,x
O=C1NC(=O)C(=Cc2ccccc2OCCOc2ccc([N+](=O)[O-])cc2)C(=O)N1,8,x,x,x,x,x,x,x,x
c1cncc(CNCCN2CCNCC2)c1,-5,x,x,x,x,x,x,x,x
Oc1ccccc1Cl,10,x,x,x,x,x,x,x,x
CCC(=O)OC1CCC2C3CCC4CC(=O)C=CC4(C)C3CCC12C (stereo unspecified),0,x,x,x,x,x,x,x,x
N#C/C(=C\c1ccc(O)cc1)C(=O)O (tested in a mixture with another compound),-99,x,x,x,x,x,x,x,x
CN1CCC(N(C)c2ncnc3ccc(Br)cc23)CC1,-20,x,x,x,x,x,x,x,x
Oc1ccc(Cl)cc1,-2,x,x,x,x,x,x,x,x
Cc1ccc(NC(=O)N2CC2)cc1NC(=O)N1CC1,1,x,x,x,x,x,x,x,x
C[C@H]1[C@@H](OS(=O)(=O)O)C[C@@H]2C[C@H]([C@@H](O)c3cc(=O)[nH]c(=O)[nH]3)NC3=NC[C@H]1N32,-3,x,x,x,x,x,x,x,x
CC(C)N(C(=O)CCl)c1ccccc1,-2,x,x,x,x,x,x,x,x
O=C1C(=O)N(c2ccccc2)P(=O)(N(CCCl)CCCl)N1c1ccccc1,0,x,x,x,x,x,x,x,x
CCC(=O)OC(Cc1ccccc1)(c1ccccc1)C(C)CN(C)C (stereo unspecified),-3,x,x,x,x,x,x,x,x
O=C1C=CC(=O)C=C1,-1,x,x,x,x,x,x,x,x
Cn1cccc1/C=C1\C(=O)NC(=O)N(Cc2ccco2)C1=O,10,x,-7,x,x,x,x,1,x
COc1ccc(OCC(=O)N2CCN(Cc3c[nH]c4ccccc34)CC2)cc1,6,x,6,x,x,x,x,15,x
COc1ccc(CC(=O)N2CCN(C)CC2)cc1,10,x,-5,x,x,x,x,8,x
C=C(COC(C)=O)CC1CC(O)[C@]2(C)OC3CC4OC5C[C@]6(C)O[C@]7(C)CCC8OC9C[C@]%10(C)OC%11C(C)=CC(=O)OC%11CC%10OC9C[C@@H](C)C8OC7CC6O[C@]5(C)C/C=C\C4OC3CC2O1 (stereo partly specified),0,x,-7,x,x,x,x,-10,x
O=C1C(Br)C2CCC1C2C(=O)O (stereo unspecified),x,x,x,11,18,-3.9,x,x,x
O=C(Cc1ccccc1)N1C[C@H]2[C@@H](c3ccccc31)[C@H](CO)N2Cc1ccccc1,x,x,x,-2,-8,2.5,x,x,x
CC(C)(C)C(=O)N1Cc2cc(-c3ccccc3)ccc2-n2nncc2C1,x,x,x,3,8,-0.7,x,x,x
O=C(O)[C@H]1[C@H](CO)[C@H]2Cn3c(ccc(-c4ccc(F)cc4)c3=O)[C@@H]1N2CC1CCCCC1,x,x,x,-1,-4,1.2,x,x,x
CCOC(=O)[C@]12Cc3cc(C)ccc3[C@H]1N(C1CCCCC1)C(=O)c1cc(OC)ccc12,x,x,x,-32,-43,-9.5,x,x,x
CC(C)C1C(C#N)=C(N)Oc2c1c(=O)oc1ccccc21 (stereo unspecified),x,x,x,4,5,-0.6,x,x,x
COC(=O)[C@H]1[C@H](CO)[C@H]2Cn3c(ccc(-c4ccccc4)c3=O)[C@@H]1N2CC1CC1,x,x,x,0,3,-0.6,x,x,x
C=CCN1[C@@H]2CN(C(C)=O)C[C@H]1C2c1ccc(Br)cc1 (stereo partly specified),x,x,x,-3&-1,-4&6,-0.8&-0.9,x,x,x
COC(=O)[C@@H]1[C@@H](CO)[C@@H]2Cn3c(ccc(-c4ccccc4F)c3=O)[C@H]1N2,x,x,x,2,0,-0.9,x,x,x
O=C(Cc1ccccn1)N1CCCCN2[C@H](CO)[C@@H](c3ccc(Br)cc3)[C@@H]2C1,x,x,x,1,-4,-3.4,x,x,x
C/C=C/c1ccc([C@H]2[C@H](CO)N3CCCCN(C(=O)Cc4ccncc4)C[C@@H]23)cc1,x,x,x,5,13,3.7,x,x,x
CCCNC(=O)[C@@H]1[C@@H](CO)[C@@H]2Cn3c(cccc3=O)[C@@H]2N1CC,x,x,x,0,-2,-1.7,x,x,x
C[C@H]1CN([C@@H](C)CO)C(=O)CCCn2nncc2CO[C@@H]1CN(C)C(=O)Oc1cccc2ccccc12,x,x,x,-2,-3,1.0,x,x,x
CN1C(=O)CN=C(c2ccc[nH]2)c2cc(Cl)ccc21 (tested in a mixture with another compound),x,x,x,5,-1,-2.6,x,x,x
O=C(NCC1=C(c2ccc3ccccc3c2)C[C@@H]2CC[C@H]1N2Cc1ccco1)c1ccc([N+](=O)[O-])cc1,x,x,x,-11,-5,-1.4,x,x,x
O=C(O)c1cc(S(=O)(=O)N2CC3CC(C2)c2cccc(=O)n2C3)ccc1F (stereo unspecified),x,x,x,5,8,-0.2,x,x,x
CCCN1[C@@H]2Cn3c(cccc3=O)[C@H]1[C@@H](C(=O)N(C)C)[C@@H]2CO,x,x,x,1,5,0.8,x,x,x
COc1ccc(C2C=C(C)Oc3c2c(=O)oc2ccccc32)cc1OC (stereo unspecified),x,x,x,-56,-72,-19,x,x,x
O=C(NCCN1CCC2(CC1)C(=O)NCN2c1ccccc1)c1ccc(F)c(F)c1,x,x,x,16,17,2.0,x,x,x
COc1ccc(OC(=O)N(C)C[C@H]2OCc3cnnn3CCCC(=O)N([C@H](C)CO)C[C@@H]2C)cc1,x,x,x,7&-4,10&1,-1.5&-0.6,x,x,x
COc1ccc2c(c1)[C@@]13CCCCC1[C@@H](C2)NCC3 (stereo partly specified),x,x,x,14,5,4.2,x,x,x
C/C=C/c1ccc(C2[C@@H]3CN(S(C)(=O)=O)C[C@H]2N3)cc1 (stereo partly specified),x,x,x,1,10,0.7,x,x,x
Cc1ccc(OC(=O)N(C)C[C@@H]2OCc3ccccc3-c3c(n(C)c4ccccc34)C(=O)N([C@@H](C)CO)C[C@H]2C)cc1,x,x,x,-2,-4,1.7,x,x,x
Cc1cc(N2CCNC[C@H]2C)ccc1N1CC[C@H](O)C1,x,x,x,17,7,11,x,x,x
COc1ccc(C(c2nnnn2Cc2ccccc2)N2CCC(n3c(=O)[nH]c4ccccc43)CC2)cc1 (stereo unspecified),x,x,x,6,9,3.5,x,x,x
COC(=O)C[C@@H]1CC[C@@H]2NC[C@H](O)COC[C@H]2O1,x,x,x,2,0,-6.3,x,x,x
O=C(Cc1ccccn1)N1CC2(C1)[C@H](c1ccccc1)[C@@H](CO)N2Cc1ccccn1,x,x,x,2,4,3.0,x,x,x
c1ccc(CN2Cc3ccccc3-n3nncc3C2)nc1,x,x,x,10,14,8.7,x,x,x
O=C(NCCN1CCC2(CC1)C(=O)NCN2c1ccccc1)c1ccccc1C(F)(F)F,x,x,x,7,6,0.3,x,x,x
CCCC#Cc1ccc([C@@H]2[C@H]3CN(C(=O)Cc4ccccn4)CCCCN3[C@H]2CO)cc1,x,x,x,2,-7,2.6,x,x,x
# Continued:
SMILES,B2AR ag,Beta cell apopt,T cruzi repl,Ecoli rRNA inh,Ecoli rRNA inh OD600,Ecoli rRNA inh RFP,LANA-H2B inh,Calb FLC,Bfl-1 A1 inh
C[C@@H]1CN([C@@H](C)CO)C(=O)CCCn2nncc2CO[C@H]1CN(C)C(=O)Oc1cccc2ccccc12,x,x,x,15&-1,2&-9,2.4&1.8,x,x,x
COC(=O)[C@H]1[C@H](CO)[C@H]2Cn3c(ccc(/C=C/c4ccccc4)c3=O)[C@@H]1N2C(=O)C1CC1,x,x,x,-5,-10,-0.1,x,x,x
C/C=C1\NC(=O)[C@H](C)NC(=O)[C@@H](NC(=O)[C@H](Cc2ccc(O)cc2)NC(=O)[C@@H](NC(=O)/C(C)=C/C)C(C)C)[C@@H](C)OC(=O)[C@H](CCCc2ccc(O)cc2)NC(=O)[C@@H](CCC(=O)O)NC1=O,x,x,x,9,17,-1.4,x,x,x
CSCCC(c1nnnn1-c1c(C)cccc1C)N1CCC2(CC1)C(=O)NCN2c1ccccc1 (stereo unspecified),x,x,x,14,11,2.3,x,x,x
COC(=O)[C@@H]1[C@@H](CO)[C@@H]2Cn3c(cccc3=O)[C@H]1N2CCc1ccccc1,x,x,x,-1,-1,-2.8,x,x,x
CCCN1[C@@H]2c3ccc(-c4ccc(OC)cc4)c(=O)n3C[C@H]1[C@H](CO)[C@H]2C(=O)OC,x,x,x,-2,-4,-1.8,x,x,x
C/C=C/c1ccc(C2[C@@H]3CN(Cc4cncnc4)C[C@H]2N3)cc1 (stereo partly specified),x,x,x,3,13,-1.4,x,x,x
Cc1cccc(C)c1-n1nnnc1C(c1cc2ccccc2o1)N1CCC(n2c(=O)[nH]c3ccccc32)CC1 (stereo unspecified),x,x,x,4,8,3.9,x,x,x
N#Cc1cccc(-c2ccc([C@@H]3[C@@H](CO)N4CCCCN(C(=O)Cc5ccccc5)C[C@@H]34)cc2)c1,x,x,x,-50,-72,-6.6,x,x,x
CCOC(=O)CNC(=O)N1Cc2ccc(Br)cc2-n2nncc2C1,x,x,x,4,18,-5.2,x,x,x
CCOC(=O)[C@]12Cc3ccccc3[C@H]1N(CCC(=O)OC)C(=O)c1cc(OC)ccc12,x,x,x,-24,-39,-0.5,x,x,x
O=C1NCN(c2ccccc2)C12CCN(C(c1nnnn1Cc1ccccc1)C1CC1)CC2 (stereo unspecified),x,x,x,-55,-78,-17,x,x,x
N#Cc1ccc(-c2ccc([C@@H]3[C@@H](CO)N4CCCCN(C(=O)Cc5ccccc5)C[C@H]34)cc2)cc1,x,x,x,-15,-61,13,x,x,x
CC(=O)CC(c1ccc2c(c1)OCO2)c1c(O)c2ccccc2oc1=O (stereo unspecified),x,x,x,-2,-8,-6.8,x,x,x
Brc1ccc2c(c1)CNCc1cnnn1-2,x,x,x,21,6,0.8,x,x,x
Oc1ccc(CCNCc2cc3c(cc2Br)OCO3)cc1,x,x,x,7,-1,4.9,x,x,x
COc1ccc(C#Cc2ccc([C@H]3[C@H](CO)N4CCCCN(C(=O)Cc5cccnc5)C[C@@H]34)cc2)cc1,x,x,x,-60,-74,-16,x,x,x
CCCN1[C@@H]2c3ccc(-c4cccc(OC)c4)c(=O)n3C[C@H]1[C@H](CO)[C@H]2C(=O)OC,x,x,x,0,4,-2.7,x,x,x

# From PubChem

# The list is partial. The share of hits here may be higher or lower than overall.
